Screening data: PubChem BioAssay, National Center for Advancing Translational Sciences (NCATS)
2A StopGo: High Throughput Screening for Foot and Mouth Disease Virus Antivirals. human cells with a luciferase reporter of 2A StopGo recoding; control for the full effect not named in the record. Potency, µM (top dose mostly 57.9 µM), inactives show top-dose signal change, negative = less light. 410,000 compounds, 1.2% hits. AID 1159524, 2015; active = well fitted falling curve with a large enough effect; inconclusive = small, poorly fitted or top-dose-only effect; inactive = no such curve, though single readings can be large or run the other way; tested in HEK293T cells; also: % is scaled to controls: 0 for no effect and ±100 for the full control effect; nearly all actives have a fitted effect of over 45% in size; luciferase light after 4 h
MARV entry inh: qHTS for inhibitors of binding or entry into cells for Marburg Virus; Marburg virus pseudotyped entry inhibition, cell reporter; control for the full effect not named in the record; about a third of the inactives were read at about 46 µM; Potency, µM (doses to about 37.8 µM), for inactives: top-dose activity change, negative = inhibition, most hits filed as inhibitors; AID 540276, 2011; 300,000 compounds, 1.8% hits; active = well fitted inhibition curve with a large enough effect; inconclusive = small, poorly fitted or top-dose-only effect, or effect the other way; inactive = flat fitted curve, though single readings scatter; tested in HEK293 cells; about a fifth of its hits are not listed in these tables; also: % is scaled to controls: 0 for no effect and ±100 for the full control effect; luciferase read-out
NS1 function inh: qHTS Assay for Inhibitors of Influenza NS1 Protein Function; AID 2326, 2010; S. cerevisiae slowed by influenza A NS1, growth recovery by OD600; Potency, µM (highest dose often 46.1 µM), for the others: at the top dose activity, positive = more growth; 270,000 compounds, 0.4% hits; also: actives are rising curves; nearly all actives have a fitted effect of over 50% in size
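Compounds were scored for reversing the slow growth caused by influenza A NS1 in S. cerevisiae, measured by optical density at 600 nm. Assay medium contained 2% galactose at pH 6.0; NS1-free yeast of the same strain were the positive control.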
LASV entry inh: qHTS for Inhibitors of binding or entry into cells for Lassa Virus | Lassa virus pseudotype entry inhibition, cell reporter; control for the full effect not named in the record | Potency, µM (titrated, usually from 37.9 µM), for the others: top-dose activity change, negative = inhibition, usual class: inhibitors | 300,000 compounds, 1.2% hits | AID 540256, 2011; active means well fitted inhibition curve with a large enough effect; inconclusive means small, poorly fitted or top-dose-only effect, or effect the other way; inactive means flat fitted curve, though single readings scatter; tested in HEK293 cells; also: % is scaled to controls: 0 for no effect and ±100 for the full control effect; nearly all actives have a fitted effect of over 50% in size; luciferase read-out
RE007 growth inh: qHTS Assay for Inhibitors of the HIV-1 protein Vpr; S. pombe RE007 Vpr strain, BacTiter-Glo ATP luminescence, 24 h; control for the full effect not named in the record; Potency, µM (doses to about 92.2 µM), for the others: at the top dose activity change, negative = less growth; 360,000 compounds, 0.21% hits; AID 651644, 2012; active = well fitted falling curve with a large enough effect; inconclusive = small, poorly fitted or top-dose-only effect; inactive = no such curve, though single readings can be large or run the other way;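 also: % is scaled to controls: 0 for no effect and ±100 for the full control effect; nearly all actives have a fitted effect of over 50% in size; the assay follows cell death caused by Vpr and the record does not say whether a fall means rescue or toxicity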
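Fission yeast RE007 carrying one integrated HIV-1 vpr copy, seeded at OD 0.01 in PMG+AL medium with 23 nL pinned compound. Grown 24 h at 30 degrees; viability read by BacTiter-Glo luminescence after 5 min.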
Cruzain Triton: qHTS Assay for Promiscuous and Specific Inhibitors of Cruzain (with detergent); Cruzipain (Trypanosoma cruzi), P25779; purified cruzain, Z-FR-AMC fluorescence, 0.01% Triton; Potency, µM, for inactives: max response, negative = inhibition, most hits filed as inhibitors; 200,000 compounds, 0.43% hits; AID 1478, 2009; active = well fitted curve in the direction sought with a large enough effect; inconclusive = small, poorly fitted or top-dose-only effect, or another doubt; inactive = no such curve, though single readings can be large; an effect the other way counts as inactive or inconclusive;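 also: plate controls were neutral wells for no effect and buffer without enzyme for full effect; nearly all actives have a fitted effect of over 40% in size; top concentration of the series not given in the record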
Target sequence (P25779 123-467 limits assumed): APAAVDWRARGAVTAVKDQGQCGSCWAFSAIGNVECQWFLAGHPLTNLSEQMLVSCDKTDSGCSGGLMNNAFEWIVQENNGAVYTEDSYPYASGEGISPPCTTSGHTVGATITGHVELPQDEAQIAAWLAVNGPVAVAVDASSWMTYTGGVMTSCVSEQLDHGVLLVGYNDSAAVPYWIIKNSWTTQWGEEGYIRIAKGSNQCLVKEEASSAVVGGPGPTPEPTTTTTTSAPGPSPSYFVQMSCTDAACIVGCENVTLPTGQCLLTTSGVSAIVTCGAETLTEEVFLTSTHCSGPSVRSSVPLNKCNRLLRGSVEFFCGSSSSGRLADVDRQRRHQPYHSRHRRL
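Steps: dispense cruzain (1.5 nM final) in acetate buffer pH 5.5 with DTT and 0.01% Triton X-100; pin-transfer compounds; incubate 15 min RT; add Z-FR-AMC (2 uM final); read fluorescence every 30 s, using the 60 s intensity change.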
SARS PLpro yeast: qHTS of Yeast-based Assay for SARS-CoV PLP; Potency, µM (titrated, usually from 32.9 µM), for inactives: top-dose activity, positive = growth rescue; 330,000 compounds, 0.19% hits; S. cerevisiae expressing SARS-CoV PLpro, growth rescue; control for the full effect not named in the record; also: 0% is about no effect; nearly all actives have a fitted effect of over 55% in size; growth read by luminescence after 48 h
Cruzain noTriton: qHTS Assay for Promiscuous and Specific Inhibitors of Cruzain (without detergent); Cruzipain (Trypanosoma cruzi), P25779; Potency, µM, without a hit: max response, negative = inhibition, most hits filed as inhibitors; purified cruzain, Z-FR-AMC fluorescence, no detergent; AID 1476, 2009; 200,000 compounds, 2.3% hits; active = well fitted curve in the direction sought with a large enough effect; inconclusive = small, poorly fitted or top-dose-only effect, or another doubt; inactive = no such curve, though single readings can be large; an effect the other way counts as inactive or inconclusive;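 also: plate controls were enzyme without inhibitor for no effect and buffer without enzyme for full effect; nearly all actives have a fitted effect of over 40% in size; top concentration of the series not given in the record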
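Purified cruzain at 1.5 nM, pre-incubated 15 min with compound at room temperature in 100 mM sodium acetate pH 5.5, 5 mM DTT, 0.00005% Triton X-100. Reaction started with 2 uM Z-FR-AMC; AMC fluorescence increase over 60 s gives rate.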
* marks the source's active call; other numbers are inactive results; ? = inconclusive; nt = not tested or not shown; & = joins results of further samples; [ ] = remark or other dose. Unless noted, calls follow the shape of the dose curve; as a rule, active means well fitted rising curve with a large enough effect; inconclusive means small, poorly fitted or top-dose-only effect; inactive means no such curve, though single readings can be large or run the other way. Potency is read from the fitted curve at half-maximal effect.

SMILES	2A StopGo	MARV entry inh	NS1 function inh	LASV entry inh	RE007 growth inh	Cruzain Triton	SARS PLpro yeast	Cruzain noTriton
CCOc1ccc(C(CC(=O)O)n2cnnn2)cc1 (stereo not given)	5%	3%[46.1 µM]	nt	-17%	-7%	nt	1%	nt
Cc1cccc(C(=O)NC(Oc2ccccc2)C(Cl)(Cl)Cl)c1 (stereo not given)	-7%	?	?	-29%	-16%	3.5%	1%	1%
Cc1cc(NS(=O)(=O)c2ccc(NC(=O)c3ccccc3C)cc2)nc(C)n1	29%	34%[46.1 µM]	nt	5%[46.1 µM]	nt	-1.9%	nt	11%
CC(c1ccccc1)C1CC(=O)N(c2ccccc2)C1=O (stereo not given)	-13%	?	14%	?	2%	nt	nt	nt
COc1nc2c(c(-c3cc(Br)cs3)c1C#N)Cc1ccccc1-2	?	nt	6%	nt	6%	nt	0%	nt
COc1ccc(C(=O)OCC(=O)N2CC(=O)Nc3ccccc32)cc1Br	-6%	1%	nt	10%	-5%	nt	1%	nt
CN(C)CCOc1ccc2ccccc2c1	-16%	?	10%	-6%	nt	-2.0%	-1%	-16%
COC(=O)Cn1c(=NC(=O)c2cc(-c3cccs3)nc3ccccc23)sc2cc(S(N)(=O)=O)ccc21	-27%	?	27%	?	-7%	-1.6%	0%	-13%
CCOC(=O)/C(C#N)=C/c1ccc(OCC(=O)Nc2cc(C)ccc2C)c(OC)c1	4%	19%	1%	-7%	14%	-1.8%	9%	-19%
O=C(CN1C(=O)CCc2cc(Br)ccc21)Nc1ccc(OC(F)(F)F)cc1	-12%	nt	nt	-6%[46.1 µM]	nt	-10%	nt	1%
COc1ccccc1C(=O)Nc1nnc(S(=O)(=O)N(C)Cc2ccccc2)s1	37%[activator]	nt	-8%	nt	-6%	nt	?	nt
COc1cc(SC)ccc1C(=O)N1CCCc2ccccc21	20%	nt	-38%	nt	-9%	nt	-6%	nt
CCn1nc(NS(=O)(=O)c2ccc([N+](=O)[O-])cc2)c2cc3cccc(C)c3nc21	-28%	nt	10%	nt	2%	nt	-1%	nt
COc1ccc2c(c1)C(C)=CC(C)(C)N2C(=O)CNCc1ccc2c(c1)OCO2	0%	?	2%	-18%	-5%	1.8%	2%	-1%
O=C(Cn1nc(C(=O)O)c2ccccc2c1=O)NC12CC3CC(CC(C3)C1)C2	-5%	-8%[46.1 µM]	nt	3%	-4%	nt	-1%	nt
N#Cc1nc(-c2ccc(OCc3ccccc3)cc2)oc1NCc1ccco1	-4%	?	-3%	5%	9%	3.1%	-1%	-16%
CCOC(=O)C1=C(C)NC2=C(C(=O)CC(C)(C)C2)C1c1ccc(O)c(OCC)c1 (stereo not given)	-20%	nt	-7%	nt	9%	nt	-1%	nt
COCc1[nH]nc2c1C(c1ccccc1Cl)C(C#N)=C(N)O2 (stereo not given)	?	?	2%	-17%	14%	3.3%	1%	-6%
CCOc1ccccc1OCC(O)CNC (stereo not given)	-15%	-4%	-17%	6%	-23%	6.7%	nt	0%
Cc1cc(-c2ccccc2)n2nc(-c3ccc(Cl)cc3)cc2n1	-15%	nt	nt	11%[46.1 µM]	nt	-1.0%	nt	-13%
Cc1ccc2c(c1)Oc1ccc([N+](=O)[O-])cc1C(=O)N2	-12%	?	nt	8%[46.1 µM]	5%	nt	-5%	nt
COc1ccccc1CNC(=O)Nc1cccs1	0%	3%	9%	0%	36%	-0.3%	-5%	?
Cc1cc2ccccc2c(=O)n1CC(=O)NCC(=O)N(C)Cc1ccccc1	-14%	5%	-11%	-24%	8%	1.6%	3%	-3%
COc1ccc(C2C(=O)N(C3CCCCC3)CC(=O)N2CCC2=CCCCC2)cc1 (stereo not given)	-20%	nt	nt	-2%[46.1 µM]	nt	0.9%	nt	-7%
Oc1cccc2nc3ccccc3nc12	10%	nt	-36%	nt	?	nt	-6%	nt

Whole records as entered above. Order of values: 2A StopGo	MARV entry inh	NS1 function inh	LASV entry inh	RE007 growth inh	Cruzain Triton	SARS PLpro yeast	Cruzain noTriton
Cc1cc(NS(=O)(=O)c2ccc(NC(=O)c3ccccc3C)cc2)nc(C)n1 across the screens: 29%	34%[46.1 µM]	nt	5%[46.1 µM]	nt	-1.9%	nt	11%
COc1ccc(C2C(=O)N(C3CCCCC3)CC(=O)N2CCC2=CCCCC2)cc1 (stereo not given) across the screens: -20%	nt	nt	-2%[46.1 µM]	nt	0.9%	nt	-7%

(more compounds)
SMILES	2A StopGo	MARV entry inh	NS1 function inh	LASV entry inh	RE007 growth inh	Cruzain Triton	SARS PLpro yeast	Cruzain noTriton
CCCCOC(=O)CSC1=C(C#N)C(c2ccc3c(c2)OCO3)CC(=O)N1 (stereo not given)	-27%	7%	-20%	6%	?	-6.5%	-5%	-12%
Cc1nc(SCc2cc(=O)c3cccc(F)c3[nH]2)n[nH]1	-11%	nt	nt	25%[46.1 µM]	nt	1.3%	nt	5%
CC(C)CN(C(=O)COC(=O)CCSc1ccc(F)cc1)c1c(N)n(Cc2ccccc2)c(=O)[nH]c1=O	-10%	?	nt	-11%	-6%	nt	5%	nt
O=C(Nc1ccccc1Cl)N1C2CCC1CC(O)(c1cccnc1)C2 (stereo not given)	-4%	8%	-3%	8%	-15%	nt	1%	nt
CC(=O)c1cccc(NC(=O)C(C)OC(=O)C2CCC2)c1 (stereo not given)	-19%	nt	10%	nt	7%	nt	-2%	nt
O=C(Nc1cccc(Cl)c1)c1ccc(NC2=NC3CS(=O)(=O)CC3S2)cc1 (stereo not given)	20%	nt	0%	nt	-11%	nt	-5%	nt
CCOc1ccc(S(=O)(=O)N(C)c2ccc(OCC(=O)OCc3c(C)noc3C)cc2)cc1	-11%	27%&27%	-7%	2%	25%	-7.0%	2%	?
O=C(COC(=O)c1nc(Cl)ccc1Cl)c1ccccc1Cl	13%	?	nt	25%[46.1 µM]	2%	nt	0%	nt
O=C(Nc1c(C(=O)N2CCOCC2)cnn1-c1ccccc1)c1ccc([N+](=O)[O-])cc1	0%	-21%	-1%	-3%	-5%	nt	2%	nt
O=C(O)c1ccc(NC(=O)c2cccc(C(=O)Nc3ccc(C(=O)O)cc3)n2)cc1	-5%	nt	4%	nt	42%	nt	1%	nt
CCCCn1c(N)c(N(CCOC)C(=O)c2cc3c(s2)CCC3)c(=O)[nH]c1=O	-8%	?	nt	22%	-17%	nt	1%	nt
N#C/C(=C/c1cn(CC(=O)O)c2ccccc12)C(=O)NCc1ccccc1	-2%	-2%[46.1 µM]	nt	-6%	0%	nt	1%	nt
CCN(CC)c1ccc(NC(=O)C2CCCN(S(=O)(=O)c3cccnc3)C2)c(C)c1 (stereo not given)	?	nt	-24%	nt	8%	6.4%	-1%	-13%
COc1ccc(-n2nc(C(=O)O)cc2-c2ccccc2)cc1	-2%	nt	-4%	nt	7%	nt	0%	nt
Clc1ccc2c(c1)CNc1c(ncnc1N1CCOCC1)O2	?	-1%	?	-14%	-7%	1.1%	-1%	-10%
COc1ccccc1OCCNC(=O)c1cc(SC)ccc1Cl	-19%	-1%	-7%	2%	17%	-5.7%	26%	2%
CC(C)c1ccc(/C=C/C(=O)Nc2nc3ccc([N+](=O)[O-])cc3s2)cc1	4%	3%	?	5%	1%[3.69 µM]	3.9%	-1%	4µM*
COC(=O)c1nc(NC(=O)c2ccccc2)n[nH]1	-3%	12%	0%	17%	-6%	4.6%	0%	-1%
Cc1ccc(CNC(=O)c2cccnc2Sc2cccc(Cl)c2)cc1	1%	1%	-1%	?	-1%	nt	0%	nt
CCOc1ccc(OCc2ccc(C(=O)OCc3ccccn3)o2)cc1	-36%	?	-108%	?	?	-4.8%	-6%	?
O=C(NN1CCOCC1)c1cc(-c2cccs2)nc2ccccc12	-17%	-6%	1%	-1%	0%	-9.5%	8%	10%
O=C(CN1CCN(c2ccc(O)cc2)CC1)Nc1ccc(S(=O)(=O)N2CCCC2)cc1	-12%	-3%[46.1 µM]	nt	4%[46.1 µM]	-3%	nt	2%	nt
CCCc1cc(=O)[nH]c(NCc2ccc(Cl)cc2)n1	-16%	-16%	9%	-15%	-9%	3.4%	nt	11%
CCOc1ccccc1-c1cc(-c2ccc(OC)cc2)nc2c1c(=O)n(C)c(=O)n2C	-10%	-3%	-23%	-11%	1%	-1.1%	4%	28%

In a second layout: results already given
O=C(NN1CCOCC1)c1cc(-c2cccs2)nc2ccccc12
  2A StopGo: -17%
  MARV entry inh: -6%
  NS1 function inh: 1%
  LASV entry inh: -1%
  RE007 growth inh: 0%
  Cruzain Triton: -9.5%
  SARS PLpro yeast: 8%
  Cruzain noTriton: 10%
O=C(CN1CCN(c2ccc(O)cc2)CC1)Nc1ccc(S(=O)(=O)N2CCCC2)cc1
  2A StopGo: -12%
  MARV entry inh: -3%[46.1 µM]
  NS1 function inh: nt
  LASV entry inh: 4%[46.1 µM]
  RE007 growth inh: -3%
  Cruzain Triton: nt
  SARS PLpro yeast: 2%
  Cruzain noTriton: nt
CCCc1cc(=O)[nH]c(NCc2ccc(Cl)cc2)n1
  2A StopGo: -16%
  MARV entry inh: -16%
  NS1 function inh: 9%
  LASV entry inh: -15%
  RE007 growth inh: -9%
  Cruzain Triton: 3.4%
  SARS PLpro yeast: nt
  Cruzain noTriton: 11%
CCOc1ccccc1-c1cc(-c2ccc(OC)cc2)nc2c1c(=O)n(C)c(=O)n2C
  2A StopGo: -10%
  MARV entry inh: -3%
  NS1 function inh: -23%
  LASV entry inh: -11%
  RE007 growth inh: 1%
  Cruzain Triton: -1.1%
  SARS PLpro yeast: 4%
  Cruzain noTriton: 28%

Random draw from the library (roughly 4.8% active in at least one column).
